# Bioassay records from PubChem.
# PINK1 expr mod = A Quantitative High throughput Screen to Identify Chemical Modulators of PINK1 Expression. PINK1 immunofluorescence, high-content cytometry, 24 h. Potency, µM (titrated, usually from 76.6 µM), inactives show at the highest dose activation (PINK1 increase), hits mostly activators. actives 0.2% (n = 410,000); active = well fitted activation curve with a large enough effect; inconclusive = small, poorly fitted or top-dose-only effect; inactive = flat fitted curve, though single readings scatter; cell line not stated here;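 further: potency means the concentration at half of the fitted maximal effect; % of control where 0% means no effect; nearly all actives have a fitted effect of over 65% in size; a mitochondrial uncoupler was the plate control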
#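 PINK1 protein level read as immunofluorescence by microplate cytometer in a fixed, stained stable cell line after 24 h exposure to five compound concentrations, with CCCP as control.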
# TRPML1 agonist = qHTS for Agonists of the Human Mucolipin Transient Receptor Potential 1 (TRPML1); actives 0.12% (n = 410,000); activation, % (no concentration beside the values); TRPML1-expressing cells, Ca2+ dye fluorescence, FDSS; host cell line not named in the record; reference of the full effect not given here; in the data active = activation above about 50%; inconclusive = about 30% to 50%; inactive = below about 30%; further: 0% is about no effect; the text of the record puts the active cut at 80%
# Target sequence (Q9GZU1 whole entry, looked up): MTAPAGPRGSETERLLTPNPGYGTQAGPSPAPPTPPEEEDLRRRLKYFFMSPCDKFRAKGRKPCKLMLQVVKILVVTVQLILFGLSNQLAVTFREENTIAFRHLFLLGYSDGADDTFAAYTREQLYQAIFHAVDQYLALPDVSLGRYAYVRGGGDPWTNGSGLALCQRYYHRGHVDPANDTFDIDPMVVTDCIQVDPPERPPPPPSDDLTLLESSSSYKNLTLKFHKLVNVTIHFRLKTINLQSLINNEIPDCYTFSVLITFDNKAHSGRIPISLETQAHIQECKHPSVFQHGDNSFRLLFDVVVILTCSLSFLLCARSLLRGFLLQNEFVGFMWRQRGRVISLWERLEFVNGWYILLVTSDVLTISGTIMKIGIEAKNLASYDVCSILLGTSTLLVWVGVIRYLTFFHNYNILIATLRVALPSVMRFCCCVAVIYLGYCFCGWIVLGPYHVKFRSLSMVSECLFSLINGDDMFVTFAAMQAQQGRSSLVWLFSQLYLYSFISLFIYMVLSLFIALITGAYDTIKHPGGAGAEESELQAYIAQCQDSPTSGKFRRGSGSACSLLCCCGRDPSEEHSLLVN
#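 In this qHTS format, compounds were pin-transferred onto Ca8-dye-loaded TRPML1-DL cells induced with Tet overnight, and intracellular Ca2+ fluorescence was recorded kinetically for 110 s after a 10 s baseline. A subsequent 4uM final 54-4 (EC80) addition followed by a second 110 s read served as the antagonist phase.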
# Six1-Eya2 blk = qHTS Assay for Inhibitors of the Six1/Eya2 Interaction | actives 0.56% (n = 360,000) | AID 651725, 2012 | AlphaScreen GST-Six1/His-Eya2 binding, biochemical; hits give low values; control for the full effect not named in the record | activity change, % (test concentration not listed) | Homeobox protein SIX1 (Homo sapiens) + Protein phosphatase EYA2 (Homo sapiens), …; in the data active = activity change below about -65%; inconclusive = about -30% to -65%; inactive = above about -30%; further: on the % scale 0 is the no-effect control and ±100 the full control effect; compound concentration not given in the record
#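 Six1/Eya2 binding was read as AlphaScreen signal after compounds were pinned into GST-Six1 plus His-tagged Eya2 (5X stock 250/500 nM) in pH 8.0 Tris/NaCl/TCEP buffer, beads added, then incubated 1 h, 37 C, dark.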
# TRPML1 inh = qHTS for Inhibitors of the Human Mucolipin Transient Receptor Potential 1 (TRPML1). activity change, negative = inhibition, % (no concentration beside the values). Mucolipin-1 (Homo sapiens), Q9GZU1. TRPML1-inducible cells, Ca2+ dye fluorescence, FDSS; hits give low values; inhibition of EC80 agonist-evoked calcium signal. actives 0.02% (n = 390,000); in the data active means activity change below about -50%; inconclusive means about -30% to -50%; inactive means above about -30%;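 further: stimulus is agonist 54-4 at its EC80 concentration; on the % scale 0 is the no-effect control and ±100 the full control effect; compound concentration not given in the record; the text of the record puts the active cut at -80%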
#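 Tet-induced TRPML1-DL cells loaded with Ca8 no-wash calcium dye were read kinetically on FDSS. Compound addition was followed by EC80 agonist 54-4 (4 uM final); inhibition was read over 110 s.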
# D2 potentiator = Beta-Arrestin HTS for Positive Allosteric Modulators of the Human D2 Dopamine Receptor: Potentiators; DiscoveRx D2 beta-arrestin cells, luminescence, 90 min; 100% = 57 uM dopamine signal; AID 624464, 2012; potentiation, % (concentration not given with the values); D(2) dopamine receptor (Homo sapiens), P14416; actives 0.23% (n = 360,000); active = potentiation of 50% or more; inconclusive = 30% to 50%; inactive = 30% or less;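 further: compound concentration not given in the record; tested on top of an EC20 dose of dopamine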
# Target sequence (P14416 whole entry, looked up): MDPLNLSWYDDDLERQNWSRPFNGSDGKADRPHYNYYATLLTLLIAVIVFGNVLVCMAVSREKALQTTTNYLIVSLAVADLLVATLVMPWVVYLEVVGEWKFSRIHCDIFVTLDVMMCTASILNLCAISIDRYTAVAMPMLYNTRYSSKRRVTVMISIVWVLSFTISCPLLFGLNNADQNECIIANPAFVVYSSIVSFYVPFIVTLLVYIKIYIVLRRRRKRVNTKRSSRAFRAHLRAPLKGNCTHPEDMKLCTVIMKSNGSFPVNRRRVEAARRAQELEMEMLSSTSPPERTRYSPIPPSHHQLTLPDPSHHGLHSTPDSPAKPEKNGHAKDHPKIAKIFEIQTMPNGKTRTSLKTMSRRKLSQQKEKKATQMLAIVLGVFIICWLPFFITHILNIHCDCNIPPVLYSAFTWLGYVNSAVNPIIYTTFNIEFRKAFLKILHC
#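 PathHunter D2 cells, attached overnight at 37 deg C, received compound in DMSO plus dopamine at EC20 (50 nM final) for 90 min at 37 deg C. Beta-arrestin recruitment was read as luminescence after 1 h with detection reagent at ambient temperature.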
# D2 agonist = Beta-Arrestin HTS for Positive Allosteric Modulators of the Human D2 Dopamine Receptor: Agonists | D(2) dopamine receptor (Homo sapiens), P14416 | DiscoveRx PathHunter D2 beta-arrestin, luminescence, 90 min; 100% = 57 uM dopamine signal | activation, % (no concentration beside the values) | actives 0.084% (n = 360,000); in the data active = activation above about 40%; inconclusive = about 15% to 40%; inactive = below about 15%; further: compound concentration not given in the record; the text of the record calls up to 30% inactive
#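 Agonist mode: compounds alone added to overnight-plated D2 PathHunter cells for 90 min at 37 C, with 57 uM final dopamine (EC100) defining full response. Beta-arrestin recruitment detected by chemiluminescent reagent, read after 1 h at ambient temperature.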
# * = called active by the depositor; ? = inconclusive; . = no result given; & = joins results of further samples; [ ] = remark or other dose.
SMILES,PINK1 expr mod,TRPML1 agonist,Six1-Eya2 blk,TRPML1 inh,D2 potentiator,D2 agonist
CC1=NN(C(=S)Nc2ccccc2)C(c2ccccc2)C1 (stereo not given),1.9%,0.3,2,-7,-16,-0.9
C=CCc1c(Cl)nc(C)nc1NCc1ccccc1,3.6%,-0.4,1,6,2,7.3
COc1ccc(Cl)cc1-n1cc(-c2ccccc2)nc1SCC(=O)Nc1ccc(C)cc1,0.4%,0.6,.,24,.,.
CC#CCOCC1CNC(=O)O1 (stereo not given),1.5%,-0.6,-5,0,-4,-2.1
Cc1ccc(CCNC(=O)c2oc(=O)c3ccccc3c2-c2ccc(C)cc2)cc1,-0.9%,0.3,.,-11,.,.
O=C(N/N=C/C(Cl)=C\c1ccccc1)c1cnccn1,0.0%,-0.4,?,-21,-23,-2.9
CC1(C)C[C@@H](O)CC2(C1)C[C@]1(C)CC(O)[C@H]2C(C)(C)C1 (stereo not given in full),1.7%,5.4,1,24,-2,-0.4
CN(C)c1nnnn1-c1ccc(Cl)cc1,1.8%,1.7,5,11,-7,-1.7
Cc1ccc(C2=NN(S(=O)(=O)c3ccccc3)C(c3ccccc3O)C2)cc1 (stereo not given),0.2%,1.2,-13,-11,-10,-7.1
CC(OC(=O)CCN=C1NS(=O)(=O)c2ccccc21)C(=O)Nc1ccc(F)cc1 (stereo not given),-0.9%,0.5,10,-11,-11,5.8
CC(=O)Oc1cccc(NC(=O)c2cccc(C(=O)Nc3cccc(OC(C)=O)c3)c2)c1,2.6%,0.3,-25,-5,-3,2.0
C[C@H](CO)N1C[C@H](C)[C@H](CN(C)S(=O)(=O)c2cccc(F)c2)Oc2cc(Br)ccc2S1(=O)=O,1.1%,0.1,-5,21,-1,-2.0
CCOC(=O)c1cc(-c2ccccc2)n(-c2cccc(C(=O)NC(C)(C)C)c2)c1C,9.2%,5.1,.,6,.,.
O=C(O)CN1CCNCCN(CC(=O)O)CCNCC1,3.0%,0.0,5,-8,6,3.4
CC(C)C[C@H]1COc2cc(N3CC[C@H](O)C3)ccc2S(=O)(=O)N1,-0.2%,-0.6,13,.,.,.
Cc1csc(C2=C(O)CN(c3ccc4c(c3)OCCOCCOCCOCCO4)C2=N)n1,2.0%,0.6,-1,15,-4,-0.3
Cc1ccccc1NC(=O)COC(=O)c1ccc2c(c1)C(=O)N(CCCN1CCOCC1)C2=O,-0.7%,0.2,10,36,-2,-0.9
Cc1ccc(S(=O)(=O)N2CCN(C(=O)CC3CCCC3)CC2)cc1,.,-0.4,2,3,-20,-1.1
COc1ccc(C)cc1NC(=O)CN1C(=O)C(=O)N(C2CCCC2)C1=O,2.2%,2.2,1,-7,-2,4.9
c1ccc(-c2cn(C[C@H]3CC[C@H](Cn4cc(-c5ccccn5)nn4)O3)nn2)nc1,0.2%,-0.7,-92*,12,-5,-5.0
Cc1cc(Cl)ccc1NC(=S)NCc1ccc(F)cc1,8.7%,1.2,0,-8,-16,1.1
CC(C)(C(=O)N1CCC1(C)C(=O)NS(=O)(=O)c1ccc(Cl)s1)c1ccccc1 (stereo not given),1.0%,-0.9,-2,.,6,7.9
O=C(Nc1ccc(-c2cnco2)cc1)c1ccc(Cl)cc1,1.4%,-0.3,-3,23,-12,-6.4
COc1ccccc1NC(=O)Nc1nnc(C(C)c2ccccc2)s1 (stereo not given),8.0%,2.4,-4,-11,0,-3.3
CN1C/C(=C/c2ccncc2)C(=O)/C(=C/c2ccncc2)C1,0.3%,-0.3,10,8,0,-2.8
CCn1cnc2cc(NCc3ccc(OC)cc3)ccc21,8.7%[38.3 µM],-0.4,-9,-4,-11,0.5
CCOc1ccc(CCNC(=O)Cn2ncn3nc(-c4ccc(OC)cc4)cc3c2=O)cc1,0.6%,-0.5,5,-1,-3,-0.2
Cc1ccc(NC(=O)c2ccc(=O)n(CC(=O)Nc3c(C)cc(C)cc3C)n2)cc1,5.7%&1.1%,-0.9&1.5,-2,-16&-18,-5,-3.6
Cc1ccc2nc(-c3ccc(NS(C)(=O)=O)cc3)cc(-c3ccccc3)c2c1,?,2.1,-8,8,0,0.6
COc1ccc(Br)cc1CN(C)CC(=O)Nc1cc(Cl)ccc1Cl,5.5%,0.7,3,17,-17,-9.4
Fc1ccc(/C=N/n2c(C3CCCCC3)n[nH]c2=S)cc1,1.3%,4.3,-1,-4,-6,?
CCOCCCNC(=O)C1(O)c2cc(Br)ccc2NC(=O)N1c1ccc(CC)cc1 (stereo not given),-0.5%,-0.6,2,9,3,3.6
COCCNC(=S)Nc1cc2oc3ccccc3c2cc1OC,-2.2%,-0.2,-1,0,-12,1.6
Oc1c(C(c2ccc(F)cc2)N2CCc3ccccc3C2)sc2ncnn12 (stereo not given),0.2%,-0.1,0,5,-5,1.7
CCc1nc(-c2cc3ccc(C)cc3[nH]c2=O)no1,-3.2%,0.9,2,-12,0,1.2
CCOC(=O)N1CCN(c2c(NCCN(C)Cc3ccccc3)c(=O)c2=O)CC1,1.6%,-0.6,-4,0,-8,-1.9
COc1ccc(CNC(=O)Cc2ccc(NC(=O)N3CCSc4ncccc43)cc2)cc1OC,1.3%,1.1,.,8,.,.
Cc1ccc(/C=N/Nc2nc3ccccc3[nH]2)s1,1.4%,1.1,-14,-10,19,8.0
CCOc1ccc(CN(C)C(=O)CNC(=O)c2cc(OC)c(OC)c(OC)c2)cc1,0.8%,1.4,0,13,-12,-1.5
COc1ccccc1N1CCN(C(=O)c2cc3c(s2)-c2ccccc2OC3)CC1,2.8%&0.1%,0.7&1.6,4,18&9,-7,-4.7
N#C/C(=N/Nc1ccc([N+](=O)[O-])cc1)C(=N)N1CCCCC1,2.7%,-0.6,-23,12,-38,-5.5
O=C(O)c1ccc(COc2ccc(CO)cc2Cl)cc1,0.7%[38.3 µM],0.3,8,-18,-2,-1.2
COc1ccc(-c2nnc(SCC(=O)NC3CC3)o2)c(OC)c1,-0.8%,-0.3,3,5,-10,-3.9
COc1ccc(OC)c(N(CC(=O)NCCSCc2ccco2)S(=O)(=O)c2ccc(OC)c(OC)c2)c1,14%,-0.2,3,-22,2,11
COCc1nnc(NC(=O)CCCOc2ccccc2)s1,-1.0%,0.5,-2,0,-8,3.2
CCCSc1nnc(NC(=O)Cc2coc3cc(C)ccc23)s1,-0.8%,-1.0,.,-18,.,.
COc1ccc(S(=O)(=O)NNC(=O)c2cc3c4ccccc4n(C)c3s2)cc1,20%,2.8,4,5,-5,-1.8
Cn1ncc(Cl)c1C(=O)N/N=C/c1cccc(OC2CSC2)c1,-2.6%,0.5,-5,-11,-7,-3.6
NC(=O)C1CCCN(C(=O)c2ccc3nc(Cc4cccc(Cl)c4)oc3c2)C1 (stereo not given),-1.6%,-0.9,6,11,5,2.8
CCCCS(=O)(=O)/C=C/[C@H]1[C@H](S(=O)(=O)CCCC)[C@H]2C=C[C@@H]1C2,-0.6%,0.9,-2,-18,-10,-2.7
CC(C)OCCCNC(=O)CCCn1c(SCC(=O)c2ccc(F)cc2)nc2c(sc3ccccc32)c1=O,0.7%,1.3,.,19,.,.
CC1(N2CCCCC2)CC2(O)C(=[N+]1[O-])CCC/C2=N\O (stereo not given),-1.4%,0.6,1,0,4,-3.3
COc1ccc(C2c3ccc4ccccc4c3Oc3ncn(CCCO)c(=N)c32)cc1OC (stereo not given),0.8%,0.5,4,-10,-4,-0.7
O=C(N/N=C/c1ccccc1O)c1cccc2ccccc12,-1.8%,0.1,-5,14,-35,-2.4
CC(C)OCCCNC(=O)c1ccc2c(c1)NC(=O)c1ccccc1S2,4.1%&7.5%,-0.8&0.1,-2,7&40,-1,1.7
c1ccc2c(c1)cnc1ccccc12,-2.5%&0.0%,-0.6&-0.5,3&2,-11&-7,-11&-19,-1.0&-3.8
Cc1ccc(N2CC(C(=O)N3CCOCC3)CC2=O)cc1C (stereo not given),-0.1%,-0.2,4,0,-5,-0.1
O=C(CCN1CCN(Cc2ccccc2)CC1)NNC(=O)Nc1cccc([N+](=O)[O-])c1,1.5%,0.4,8,-7,-43,-5.4
Cc1ccc2cc(-c3noc(C(C)(C)C)n3)c(=O)[nH]c2c1,-4.6%,-0.9,4,-3,-6,-0.3
O=C(CN1C(=O)NC2(CCOc3ccccc32)C1=O)Nc1cccc([N+](=O)[O-])c1 (stereo not given),1.7%,-0.3,-11,1,-1,-3.8

# Going on with the list.
SMILES,PINK1 expr mod,TRPML1 agonist,Six1-Eya2 blk,TRPML1 inh,D2 potentiator,D2 agonist
COc1ccc(CCNc2nc(-c3ccc(Cl)cc3)cc(C(F)(F)F)n2)cc1OC,4.1%,-0.2,.,-12,.,.
CC(C)C1C(=O)N(Cc2cn(CCC3OCCO3)nn2)CCS(=O)(=O)N1Cc1ccc(-c2ccc(Cl)cc2)cc1 (stereo not given),?,1.3,5,-8,-11,0.3
COc1ccc(/C=C/C(=O)Nc2cc(S(=O)(=O)N3CCOCC3)ccc2C)cc1OC,3.3%,-0.7,-3,8,-4,-1.8
C/C(=N/NC(=O)CNC(=O)CCc1ccccc1)c1ccc(Cl)cc1,-0.2%,1.1,-1,57,-6,-3.4
COc1ccc(NC(=O)CSc2nnc(NC(=O)c3ccc(S(=O)(=O)N4CCOCC4)cc3)s2)cc1,5.3%,-0.8,6,7,1,-2.2
CCCOC(=O)c1c(NC(=O)c2cc3nc(-c4ccc(OC)cc4)cc(C(F)(F)F)n3n2)sc2c1CCCC2,-0.1%,-0.5,.,-6,.,.
COc1cccc(C2CCCN2Cc2nc(-c3cnccn3)no2)c1 (stereo not given),1.2%,0.8,3,11,-2,0.0
COc1ccc(Br)c2c1-c1nc(NC(=O)c3ccccc3SC)sc1C2,0.1%,1.0,.,-4,.,.
CCOc1ccc(CN2CCN(Cc3cccn3-c3ncccn3)CC2CCO)cc1 (stereo not given),-0.4%,0.5,15,26,-6,-4.1
Cc1cc(C)cc(OCCSc2nc3ccc(NC(=O)c4cccs4)cc3s2)c1,3.3%,0.7,.,-4,.,.
Cc1cc(Br)cc2c(C(=O)Nc3c(C)n(C)n(-c4ccccc4)c3=O)cc(-c3cccs3)nc12,?,0.0,-10,-7,-12,0.3
